From PubChem
Vif A3G = inhibitors of Vif binding to APOBEC3G peptide, primary screen, biochemical, TR-FRET, GST-Vif 1-94, biotin-A3G peptide, dose response retest (AID 1117319) | 260,000 compounds, 0.57% hits | inhibition, %; hits with a dose series show IC50 in µM | TR-FRET GST-Vif / biotin-A3G peptide binding; higher % means a stronger effect; test concentration not given here; strong numbers were not always called active;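 active means above the screen mean plus three standard deviations and confirmed in dose response; inconclusive means results disagree or hit not tested in dose response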;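 further: Vif residues 1-94 fused to GST binding biotinylated APOBEC3G peptide 110-148; 0% = full assay without inhibitor and 100% = GST in place of GST-Vif; retest series ran down from 100 µM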
B2AR ag = agonists of human beta-2 adrenergic receptor inducing internalization. AID 504454. P07550. response, % (concentration not given with the values). 340,000 compounds, 0.43% hits. Am2.2-beta2AR cells, FAP receptor internalization, flow cytometry; reference of the scale not given here;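 active means response above a set limit, near 3 SD of response in nonfluorescent compounds, cut at about 42% in these data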;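 further: stock transfer was 100 nL into about 11 µL; a reference agonist was the positive control; negative values mostly stem from fluorescent compounds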
Target sequence (P07550 whole entry, looked up): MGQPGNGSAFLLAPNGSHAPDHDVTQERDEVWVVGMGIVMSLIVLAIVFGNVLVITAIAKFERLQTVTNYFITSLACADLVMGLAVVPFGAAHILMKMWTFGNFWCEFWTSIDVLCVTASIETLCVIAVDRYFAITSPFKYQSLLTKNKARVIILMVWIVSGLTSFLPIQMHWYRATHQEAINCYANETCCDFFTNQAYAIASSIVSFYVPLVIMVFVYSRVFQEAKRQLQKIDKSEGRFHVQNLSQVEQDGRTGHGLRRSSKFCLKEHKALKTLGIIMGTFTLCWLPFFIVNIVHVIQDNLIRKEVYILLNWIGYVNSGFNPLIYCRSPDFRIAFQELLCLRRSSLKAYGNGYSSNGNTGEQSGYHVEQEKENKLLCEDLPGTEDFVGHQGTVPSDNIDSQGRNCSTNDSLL
RanGTP-Impb inh = disruptors of Ran-importin-beta complex formation – biochemical, FRET, CFP-Ran, YFP-importin-beta, homogeneous, primary screen; inhibition, % (test concentration not listed); AID 2216; cell-free CFP-Ran/YFP-importin-beta FRET ratio; 300,000 compounds, 1.1% hits;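 active means most replicates above 15%; inconclusive means exactly half above 15%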;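 further: 0% = DMSO wells and 100% = Ran loaded with GDP instead of GTP; wells of about 40 µL received 100 nL stock; the first replicate is given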
HNF4A DNA FP = change in binding of human HNF4 alpha to DNA | AID 1224865 | activity change, % at 10 µM | P41235 | 360,000 compounds, 0.3% hits | HNF4a-FITC DNA binding, fluorescence polarization, 1 h; in the data active means activity change above about 30%, passing the limit was not always enough;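 further: controls were the assay level and a saturating level of protein; the project sought stronger binding though the title names inhibitors; some compounds called inactive have numbers as strong as hits; positive values seem to mean higher polarization but the record does not say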
Target sequence (P41235 whole entry, looked up): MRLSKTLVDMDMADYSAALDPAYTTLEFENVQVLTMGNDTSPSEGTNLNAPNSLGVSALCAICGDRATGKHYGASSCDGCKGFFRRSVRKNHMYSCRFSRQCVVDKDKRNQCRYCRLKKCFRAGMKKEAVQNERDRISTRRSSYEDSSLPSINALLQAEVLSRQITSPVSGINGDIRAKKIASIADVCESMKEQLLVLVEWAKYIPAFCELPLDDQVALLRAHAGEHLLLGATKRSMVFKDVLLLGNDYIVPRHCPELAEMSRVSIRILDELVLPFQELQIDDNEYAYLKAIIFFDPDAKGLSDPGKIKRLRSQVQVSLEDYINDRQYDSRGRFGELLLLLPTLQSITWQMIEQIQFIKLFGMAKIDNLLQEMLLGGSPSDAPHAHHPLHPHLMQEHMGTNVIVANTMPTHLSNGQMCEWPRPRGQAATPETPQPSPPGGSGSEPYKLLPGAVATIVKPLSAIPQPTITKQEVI
LANA-H2B inh = blocks KSHV LANA binding to histone H2A/H2B; Q9QR71; cell-free LANA-H2A/H2B peptide, fluorescence polarization; inhibition, % (test concentration not listed); 320,000 compounds, 0.6% hits; in the data active means inhibition mostly above about 10%, no sharp cut-off; inactive means mostly below about 6.7%;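 further: stock transfer was 7.5 nL into about 10 µL; 0% = median of vehicle wells and 100% = median of positive control wells; one replicate is shown; the record names a cut of 25% in any replicate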
Calb FLC = C. albicans growth modulation with fluconazole. growth inhibition, % (concentration not given with the values). 300,000 compounds, 0.57% hits. C. albicans CaCi-2 (fluconazole-resistant clinical isolate) + fluconazole, Alamar Blue growth, 48 h;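 active means most replicates above 75%; inconclusive means exactly half above 75%; inactive means most below 75%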;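 further: all wells also contain fluconazole at 8 µg/ml as a sub-toxic cotreatment; 0% = median of DMSO wells and 100% = median of geldanamycin control wells; wells of about 8 µL received 7.5 nL stock; the first replicate is given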
ALR inh = inhibitors of human sulfhydryl oxidase ALR; P55789; purified ALR, DTT oxidation, H2O2 HRP-luminol luminescence; inhibition, % (concentration not given with the values); 290,000 compounds, 3.8% hits; AID 485317;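 active means mean and each replicate at 75% or more; inconclusive means only one of the two met; inactive means neither met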;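 further: stock transfer was 7.5 nL into about 7.5 µL; 0% = neutral wells and 100% = wells with inactivated enzyme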
Target sequence (P55789 whole entry, looked up): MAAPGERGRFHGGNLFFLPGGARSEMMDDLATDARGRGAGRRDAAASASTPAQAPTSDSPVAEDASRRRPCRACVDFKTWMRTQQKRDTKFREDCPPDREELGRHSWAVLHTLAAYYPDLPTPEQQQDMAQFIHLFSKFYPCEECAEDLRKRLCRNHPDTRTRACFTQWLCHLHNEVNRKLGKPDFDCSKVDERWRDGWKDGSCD
Active calls of the source: *; i = inactive; u = inconclusive; x = no result given; & = joins results of further samples.

SMILES | Vif A3G | B2AR ag | RanGTP-Impb inh | HNF4A DNA FP | LANA-H2B inh | Calb FLC | ALR inh
C#Cc1ccc([C@H]2C=C(C(=O)OCC=C)O[C@@H](OCC)[C@@H]2CCCO)cc1 | 5% | 13 | -0.4 | 6.4 | 3.3 | 3 | -23
NC(=O)CC(NC(=O)Cc1cccc2ccccc12)c1ccc(NCCc2ccccc2F)c([N+](=O)[O-])c1 (centres undefined) | -5% | -8 | -3.8 | 16 | 0.1 | -12 | -9
COc1ccc(C(=O)OCC(=O)NC2CCCCCC2)c(OC)c1 | -3% | 1 | x | 1.7 | x | x | x
Cc1ccc(OC(C)C(=O)Nc2ccc(S(=O)(=O)N3CCOCC3)cc2)cc1 (centres undefined) | x | 3 | 0.7 | -0.7 | -2.8 | -4 | -2
C=CC[C@H](CC(=O)NCCO)C(=O)N[C@H](COC(=O)[C@H](CC=C)CC(=O)OC(C)(C)C)Cc1c[nH]c2ccccc12 | -6% | 6 | x | 1.6 | i | x | -2
Nc1nc(-c2ccc(F)cc2)cs1 | -1% | -6 | 1.3 | 2.5 | -2.7 | 8 | 39
Cc1ccc(CC(=O)NCCCc2ccccc2)cc1 | -1% | -10 | 1.9 | 0.2 | -1.8 | -7 | -3
Oc1ccc(C2=Nn3c(nnc3-c3ccco3)SC2)cc1O | u | -10 | -2.5 | -2.5 | 3.4 | 0 | 58
CC(=O)Oc1ccc(C(=O)NC(C)CCc2ccccc2)cc1 (centres undefined) | x | -1 | 1.9 | 1.9 | 2.5 | -3 | -1
COc1ccc(NC(=O)C2CCN(C(=O)[C@@H]3Cc4ccccc4CN3)CC2)cc1 | x | 14 | 3.9 | -1.6 | -4.0 | x | -6
COC(CNC(=O)C(=O)NCC1OCCN1S(=O)(=O)c1ccccc1)OC (centres undefined) | 2% | 0 | -2.0 | -1.6 | 0.2 | -20 | x
Cc1cc(NC(=O)CCN2C(=O)C3C4C=CC(C4)C3C2=O)c2ccccc2n1 (centres undefined) | 2% | 0 | u | 1.0 | -1.9 | 1 | -15
Cn1c(CN2CCCC2)nc2cc(NC(=O)COc3ccc([N+](=O)[O-])cc3)ccc21 | u | -9 | -5.2 | -2.7 | 3.4 | 11 | -9
COc1ccc(N(CC(=O)NCCC2=CCCCC2)S(C)(=O)=O)cc1OC | 2% | -12 | -3.5 | -0.9 | 1.7 | 0 | -10
Cc1cc(N2CCCCC2)nc2c(C)cccc12 | 6% | -4 | -1.2 | -0.2 | -2.1 | 5 | -9
Cn1c(SCC(=O)Nc2ccc3c(c2)CCC3)nnc1C1CC1 | -12% | 14 | x | 0.3 | 2.3 | x | -1
Cn1c(=O)c(C(=O)NCc2ccccc2Cl)c(O)c2ccccc21 | x | -5 | u | -0.5 | 1.9 | 2 | -2
Nc1nc(SCC(=O)NCC2CCCO2)n[nH]1 (centres undefined) | 0% | -3 | 2.3 | -0.2 | 1.1 | -10 | -1
CCOC(=O)c1sc2nc(C)nc(SCC(=O)N(C)C3CCS(=O)(=O)C3)c2c1C (centres undefined) | x | -10 | -7.5 | 5.7 | 1.7 | u | -4
CCOc1ccc(C(=O)CC(C(=O)O)N2CCN(Cc3ccccc3)CC2)cc1 (centres undefined) | 1% | -6 | x | 0.9 | -297 | x | 13
COc1ccc(NC(=O)Cc2ccc(Cl)c(Cl)c2)cn1 | -8% | 1 | 1.7 | 1.0 | 21 | 0 | -18
COc1ccc(OC)c(NC(=O)C2CCN(S(=O)(=O)c3ccc4c(c3)CC(C)N4C(C)=O)CC2)c1 (centres undefined) | x | 1 | 0.2 | -1.0 | 1.2 | -8 | -9
C#CCN1C(=O)C(O)(CC(=O)c2cc(OC)ccc2OC)c2ccccc21 (centres undefined) | -3% | -4 | 1.1 | 3.8 | -2.6 | -28 | -20
COC(=O)C1CCN(C(=O)c2cc3ccccc3oc2=O)CC1 | 1% | 8 | 3.6 | -0.5 | 8.9 | -2 | -1
CNC(=S)N(CCc1c(C)[nH]c2ccc(OC)cc12)Cc1cc(OC)c(OC)c(OC)c1 | 7% | 6 | -6.7 | 1.4 | -6.5 | 4 | 4
COc1ccc2nc(NC(=O)/C=C/c3ccc4c(c3)OCO4)sc2c1 | x | x | 2.2 | x | 3.8 | -11 | -5
CCOC(=O)c1nnn(-c2ccccc2C#N)c1C | u | 6 | -0.9 | -4.9 | 1.0 | -2 | -8
CC1=NN(c2ccccc2)C(=O)C1/C=C1/NC(=S)NC1=O (centres undefined) | 14% | -3 | -9.1 | 5.7 | 0.7 | -1 | x
CCCCn1c2c(c(=N)c3ccccc31)CCC2 | x | -5 | 5.9 | -1.3 | -2.5 | 0 | -4
Cc1ccc(C(=O)NC(NC(=S)Nc2ccc(S(N)(=O)=O)cc2)C(Cl)(Cl)Cl)cc1 (centres undefined) | u | 4 | -1.7 | -1.9 | x | -9 | x
Cc1cccc(NC(=O)C2CCCN(c3cnccn3)C2)c1 (centres undefined) | x | -5 | 4.1 | 3.1 | x | -3 | 9
NC(=O)c1ccccc1NC(=O)Cc1cccs1 | x | -8 | -3.8 | -1.8 | 4.4 | -6 | -10
CCn1nc(C)c(/C=C/C(=O)Nc2ccc(C)cc2C)c1C | 0% | -1 | -5.3 | 2.1 | -3.8 | 0 | -1
O=C(CSc1nc(O)cc(=O)n1-c1ccccc1)Nc1ccc2c3c(cccc13)CC2 | 13% | 0 | -4.0 | 3.1 | 1.7 | 0 | 99*
CN(Cc1c(O)ccc2c1oc(=O)c1ccccc12)C1CCCCC1 | 12% | -14 | -4.3 | 0.2 | 1.3 | 0 | 69
COc1ccc(OCCCCOc2ccccc2Cl)cc1 | 4% | 1 | -3.8 | -1.3 | -0.8 | 4 | -2

Part of the list above in another layout.
smiles: O=C(CSc1nc(O)cc(=O)n1-c1ccccc1)Nc1ccc2c3c(cccc13)CC2
- Vif A3G: 13%
- B2AR ag: 0
- RanGTP-Impb inh: -4.0
- HNF4A DNA FP: 3.1
- LANA-H2B inh: 1.7
- Calb FLC: 0
- ALR inh: 99*
smiles: CN(Cc1c(O)ccc2c1oc(=O)c1ccccc12)C1CCCCC1
- Vif A3G: 12%
- B2AR ag: -14
- RanGTP-Impb inh: -4.3
- HNF4A DNA FP: 0.2
- LANA-H2B inh: 1.3
- Calb FLC: 0
- ALR inh: 69
smiles: COc1ccc(OCCCCOc2ccccc2Cl)cc1
- Vif A3G: 4%
- B2AR ag: 1
- RanGTP-Impb inh: -3.8
- HNF4A DNA FP: -1.3
- LANA-H2B inh: -0.8
- Calb FLC: 4
- ALR inh: -2

Going on with the list:
SMILES | Vif A3G | B2AR ag | RanGTP-Impb inh | HNF4A DNA FP | LANA-H2B inh | Calb FLC | ALR inh
N#Cc1ccc(Oc2ccc(-c3nc4ccccc4nc3-c3ccccc3)cc2)cc1C#N | -4% | -14 | -0.2 | -5.3 | -3.2 | 2 | -4
Cc1cc(OCc2cc(C(=O)N(C)C(C)c3ccccn3)no2)cc(C)c1Cl (centres undefined) | x | -2 | -2.9 | 2.0 | -5.7 | -11 | -6
COc1cc(NC(=O)CSc2nncn2C)cc(OC)c1OC | x | 0 | u | -1.3 | -6.1 | -13 | -7
Cc1ccc(OCC(=O)Nc2ccc3oc(=O)ccc3c2)c(C)c1 | x | 4 | 3.2 | 1.2 | 0.0 | -1 | x
O=C(Nc1nc(-c2ccccn2)cs1)C12CC3CC(CC(O)(C3)C1)C2 | 9% | 12 | -2.5 | -6.6 | 4.3 | -26 | -10
CN(Cc1ccco1)C(=O)Cn1ncc2c([nH]c3ccccc32)c1=O | -3% | -9 | -1.9 | 1.7 | -5.7 | -7 | 2
CC[C@H](C)[C@@H]1NC(=O)c2cc([N+](=O)[O-])cc(I)c2NCC[C@@H](C(N)=O)NC(=O)[C@H](CCCN=C(N)N)NC1=O | -1% | x | x | x | 1.9 | x | -8
CSC(=NCCCN1CCOCC1)NS(=O)(=O)c1cccs1 | 2%&2% | -4&1 | -2.5 | 3.0&-4.6 | -4.5 | -1 | 0
O=C(c1ccc(-c2ccccc2)cc1)N1CCC(C(=O)N2CCCC2)CC1 | -8% | -2 | 0.0 | -1.2 | -7.2 | -15 | -2
CC(=O)Nc1ccc(NC(=O)CN(c2ccc(F)cc2)S(=O)(=O)c2ccc3c(c2)OCCO3)cc1 | 6% | 2 | -4.9 | 1.6 | 1.0 | -2 | -1
FC(F)(F)c1cccc(-n2cccc2/C=N/n2cnnc2)c1 | 8% | -7 | 4.5 | 5.6 | 0.2 | -2 | x
COc1ccc(NS(=O)(=O)c2ccc(Oc3c(C#N)cccc3C#N)cc2)cc1 | 10% | 0 | 3.9 | 2.2 | -0.5 | 5 | -6
Cn1c(=O)[nH]c2ncccc21 | 16% | 3 | 8.4 | -6.2 | 8.2 | 0 | -3
CC(C)N(Cc1ccccc1)C(=O)COc1ccccc1 | -11% | 23 | -0.2 | 0.0 | 4.1 | -4 | -6
COc1ccc(NC(=O)CN2CCCCC2)cc1 | 3% | -3 | -2.8 | -1.5 | 1.6 | -1 | -1
O=C(O)CN(c1ccccc1)C1SC(=O)NC1=O (centres undefined) | 29% | -6 | 8.9 | -1.4 | -3.4 | -7 | -9
CCC(=O)N/C(=N/c1nc(C)cc(C)n1)Nc1cccc(OC)c1 | -3% | 0 | 5.2 | 2.3 | 0.3 | 2 | -4
O=C(COc1cc(F)ccc1[N+](=O)[O-])Nc1cc(S(=O)(=O)N2CCCC2)ccc1Cl | 6% | 4 | x | 0.5 | x | x | x
O=C1c2cccc3cc(Br)cc(c23)C(=O)N1Nc1ccc(Br)cc1 | x | 1 | 9.9 | 1.0 | -3.7 | 3 | -6
O=C(NNS(=O)(=O)c1ccccc1F)c1ccccc1-n1cccc1 | x | 9 | -1.4 | 3.0 | 3.8 | 2 | 14
CC1(c2nnc(-c3ccc(F)cc3)o2)CC(c2cccc(Cl)c2)=NO1 (centres undefined) | 10% | 4 | -1.6 | 7.1 | -5.3 | -8 | -4
Cc1nc(SCc2ccccc2)c2oc3ccccc3c2n1 | u | -5 | 1.9 | 0.1 | 4.3 | -2 | -4
CN1CCN(CCCNC(=O)c2ccc(/C=C3\Oc4ccccc4N(Cc4ccc(Cl)cc4)C3=O)cc2)CC1 | x | 21 | 4.4 | 8.4 | 0.1 | u | x
C[C@H](NC(=O)c1[nH]cnc1C(=O)Nc1ccc(Cl)cc1)C(=O)OC(C)(C)C | 30% | -2 | 7.9 | 4.8 | 2.9 | 30 | 0

The closing two entries of the section above come first, to join the parts:
SMILES | Vif A3G | B2AR ag | RanGTP-Impb inh | HNF4A DNA FP | LANA-H2B inh | Calb FLC | ALR inh
CN1CCN(CCCNC(=O)c2ccc(/C=C3\Oc4ccccc4N(Cc4ccc(Cl)cc4)C3=O)cc2)CC1 | x | 21 | 4.4 | 8.4 | 0.1 | u | x
C[C@H](NC(=O)c1[nH]cnc1C(=O)Nc1ccc(Cl)cc1)C(=O)OC(C)(C)C | 30% | -2 | 7.9 | 4.8 | 2.9 | 30 | 0
CCCc1nnc(SCC(=O)N2C(C)CCCC2C)n1CC (centres undefined) | -1% | -11 | 4.9 | 1.3 | 3.1 | -7 | -5
O=C1C2C3C=CC(CC3)C2C(=O)N1/N=C/c1ccccc1O (centres undefined) | -3% | -14 | -4.5 | 4.3 | 5.7 | -4 | -2
CCOC(=O)c1c(C)n(O)c2ccc(Cl)cc2c1=O | u | -7 | 3.0 | -2.5 | 5.4 | -3 | 4
COc1ccc(/C=N/NC(=O)c2ccccc2O)cc1CN1CCOCC1 | x | -6 | 1.6 | -0.8 | -3.9 | 4 | 3
